# E coli growth – blocks Escherichia coli growth | OD600, 23 h; hits give low values | OD600 absorbance (test concentration not listed) | actives 0.21% (n = 330,000) | AID 1053175;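 active = OD600 absorbance below the run mean of sample wells minus 3.6 SD, in any replicate, cut at about 0.56 in these data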;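 also: stock transfer was 300 nL into about 60 µL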
# A1 inh – inhibitors of the anti-apoptotic protein A1, read as caspase activation. MEF A1-2A-BIM cells, Caspase-Glo 3/7 luminescence, 3 h; percent of clofoctol response, vehicle zero. caspase activation, % (concentration not given with the values). actives 0.066% (n = 330,000). AID 2462;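 active = over half of replicate activation scores above 10%, or exactly half above 10 with the replicate mean above 10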;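 also: wells of about 30 µL received 50 nL stock; many hits fall short of the cut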
# Beta cell apopt – blocks beta cell apoptosis. INS-1E cytokine-induced death, ATP luminescence, 48 h; percent of positive-control rescue, neutral wells zero. protection from apoptosis, % (concentration not given with the values). actives 0.8% (n = 300,000). AID 435005;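 active = all replicates at 75% or more, or half of them and the mean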;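 also: 0% = cytokine-treated negative control wells and 100% = positive control rescue; higher means more ATP so stronger rescue from cytokine killing; wells of about 40 µL received 100 nL stock; the first replicate is given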
# T cruzi inh – T. cruzi replication inhibition | T. cruzi beta-gal in NIH3T3, luminescence, 90 h | inhibition, % (no concentration beside the values) | actives 1.4% (n = 300,000) | AID 1885;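 active = mean inhibition across valid replicates above about 55%, limit read from the data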;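 also: signal also drops with host cell toxicity which is not excluded here; 0% = plate median of DMSO wells and 100% = zero luminescence signal; higher percent means less beta-gal luminescence so fewer parasites; stock transfer was 50 nL into about 50 µL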
# FGF22 binding – binders of recombinant human FGF22 by thermal shift | Q9HCT0 | SYPRO orange fluorescence; percent of sucrose octasulfate shift, DMSO zero | calls only at 9.99 µM | actives 1.5% (n = 340,000) | AID 651658;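 active = melting point raised past a set limit in the mean and every replicate; three in four hits are not shown here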
# Target sequence (Q9HCT0 whole entry, looked up): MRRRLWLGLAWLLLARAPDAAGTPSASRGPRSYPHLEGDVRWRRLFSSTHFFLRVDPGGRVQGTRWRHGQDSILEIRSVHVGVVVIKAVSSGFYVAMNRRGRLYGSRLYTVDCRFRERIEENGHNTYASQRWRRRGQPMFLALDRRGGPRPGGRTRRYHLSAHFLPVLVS
# UCH37 inh – human UCH37 deubiquitinating enzyme inhibition. AID 588478. purified proteasome/UCH37, Ub-AMC cleavage fluorescence. inhibition, % (concentration not given with the values). actives 0.33% (n = 330,000);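 active = mean of two replicates above 20%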;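 also: 0% = compound-free wells with enzyme and 100% = wells lacking proteasome; stock transfer was 100 nL into about 20 µL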
# Target sequence (Q9Y5K5 whole entry, looked up): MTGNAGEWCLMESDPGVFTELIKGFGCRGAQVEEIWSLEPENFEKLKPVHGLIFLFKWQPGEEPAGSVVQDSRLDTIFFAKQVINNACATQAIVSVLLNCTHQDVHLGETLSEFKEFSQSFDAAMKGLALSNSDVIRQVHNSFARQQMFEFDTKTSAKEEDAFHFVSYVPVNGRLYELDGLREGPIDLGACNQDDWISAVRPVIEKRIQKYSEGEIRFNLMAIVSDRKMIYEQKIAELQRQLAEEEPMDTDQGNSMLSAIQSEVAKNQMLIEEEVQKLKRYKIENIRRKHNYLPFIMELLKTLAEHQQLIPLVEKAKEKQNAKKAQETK
#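 Test system – human UCH37 enzyme supplied as purified proteasome complex · Incubation – 30 min preincubation with enzyme, 25 min cleavage at room temperature · Detection – AMC fluorescence from Ub-AMC cleavage, excitation 355 nm, emission 460 nm · Benchmarks – no-proteasome wells (full inhibition) and compound-free wells (no inhibition)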
# rRNA inh HTS – selective bacterial rRNA inhibition in E. coli. E. coli WT GFP vs humanized-ribosome RFP mutants, fluorescence, 24 h; hits give low values; DMSO median 0, no signal -100. GFP signal change (wild-type ribosome), % (test concentration not listed). actives 1.6% (n = 350,000);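 active = significant combined selectivity score with lowered wild-type GFP, culture density cut under 30%, mutant RFP and density less affected; inactive = any of these conditions unmet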; also: one replicate is shown; some compounds called inactive have numbers as strong as hits
# MLL AF4-AF9 inh – MLL-AF4/AF9 protein interaction inhibition; AID 651704; inhibition, % at 10 µM; AlphaScreen, biotin-AF4 peptide binding to FLAG-AF9; P42568; actives 0.47% (n = 350,000);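 active = every replicate reaching a set inhibition limit, whatever the replicate mean, cut at about 25% in these data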;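 also: 0% = plate neutral control median and 100% = total signal loss; the record names both 10 and 1 µM as test concentration; the first replicate is given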
# Target sequence (P42568 whole entry, looked up): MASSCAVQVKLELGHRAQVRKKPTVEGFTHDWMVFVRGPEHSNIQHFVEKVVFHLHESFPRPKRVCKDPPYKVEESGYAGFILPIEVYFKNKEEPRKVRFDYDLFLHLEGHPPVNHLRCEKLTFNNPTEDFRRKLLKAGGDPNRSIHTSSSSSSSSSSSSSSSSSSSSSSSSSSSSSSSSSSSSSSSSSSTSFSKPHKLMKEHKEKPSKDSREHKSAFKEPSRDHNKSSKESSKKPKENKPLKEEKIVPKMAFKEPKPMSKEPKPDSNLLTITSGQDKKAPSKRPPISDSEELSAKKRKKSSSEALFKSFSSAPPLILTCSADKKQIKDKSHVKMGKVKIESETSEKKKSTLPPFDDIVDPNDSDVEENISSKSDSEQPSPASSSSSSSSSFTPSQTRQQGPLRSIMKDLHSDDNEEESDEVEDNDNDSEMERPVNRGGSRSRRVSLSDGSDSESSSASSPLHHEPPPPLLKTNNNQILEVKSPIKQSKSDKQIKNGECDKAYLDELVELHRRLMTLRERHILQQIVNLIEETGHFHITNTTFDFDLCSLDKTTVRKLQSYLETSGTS
# rRNA inh HTS OD600 – further read-out of rRNA inh HTS, marked with its call; OD600 change, %; measured here: OD600 growth;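 optical density of the mix in the first replicate; 0 = DMSO median and -100 = no signal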
# rRNA inh HTS RFP – also measured in rRNA inh HTS; calls as there; RFP signal change, %; measured here: RFP humanized mutant strains;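 first replicate; 0 = DMSO median and -100 = no signal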
# * marks the source's active call; other numbers are inactive results; i = inactive; / = no result given. This is a subset, so the mix of outcomes need not match the whole.
SMILES,E coli growth,A1 inh,Beta cell apopt,T cruzi inh,FGF22 binding,UCH37 inh,rRNA inh HTS,rRNA inh HTS OD600,rRNA inh HTS RFP,MLL AF4-AF9 inh
COc1ccc(CCNS(=O)(=O)CCNC(=O)c2ccc3c(c2)OCO3)cc1OC,0.69,-0.2,1,-9,i,2.7,1,-1,-1.8,-11
O=C1OC(/C(=C\Nc2cc(Cl)ccc2O)[N+](=O)[O-])c2ccccc21 (centres undefined),0.67,-0.6,-10,-14,i,1.0,-2,-10,0.5,-1.5
COC(=O)/C(C#N)=C/c1c(Oc2cc(C)cc(C)c2)nc2c(C)cccn2c1=O,0.69,0.1,-2,-40,/,-39,/,/,/,/
Cc1ccc(-n2ncc3c(=O)[nH]c(SCC(=O)NCC4CCCO4)nc32)cc1 (centres undefined),0.65,-0.2,-5,/,i,2.0,11,16,0.1,8.7
CC(NC(=O)C(C)(C)C)C(c1cccs1)N1CCN(Cc2ccccc2)CC1 (centres undefined),0.65,0.2,-13,-8,i,1.6,6,-5,-6.5,-13
Cc1cc(C)cc(C(=O)NCC(=O)OCc2c(C)noc2C)c1,0.68,0.0,-13,-15,/,-21,/,/,/,/
CC1CCN(c2ccc(C(F)(F)F)cc2N)CC1,0.69,0.3,-10,-15,i,0.8,9,-7,-0.7,-0.3
COc1cc(NC(=S)NCCSc2ccc(C)cc2)cc(OC)c1,0.68,0.1,/,18,/,-0.2,/,/,/,/
Cc1cc(C(=O)Nc2ccc(C)c(C)c2)n(-c2ccccc2)n1,0.68,1.5,11,-13,i,4.2,-2,-7,0.9,6.5
Cc1ccc(Nc2nc(N)[nH]c(=O)c2N=O)cc1,/,-0.2,3,-6,i,/,56,15,31,3.7
COC(=O)c1ccc(CNC(=O)CCc2c[nH]c3ccccc23)cc1,0.63,-0.9,/,-3,i,3.8,0,0,0.9,2.3
O=C(CCC(=O)c1ccc[nH]1)c1ccc(Cl)cc1,0.7,-2.7,-2,-13,/,2.7,/,/,/,/
CCCCOc1ccccc1NC(=O)C=C(C)C,0.68,0.1,1,14,i,2.5,7,0,-6.8,10
COc1cc(NC(=O)NCC2CCN(Cc3ccccc3Cl)CC2)cc(OC)c1OC,0.66,0.5,/,12,i,0.9,9,2,1.1,0.4
COc1cccc(N(CC(=O)Nc2cccc(C(C)=O)c2)S(C)(=O)=O)c1,0.74,-0.1,1,-5,/,4.9,/,/,/,/
COC(=O)c1sc(NC(=O)CC(C)C)c(C(=O)OC)c1C,0.72,0.6,-4,/,/,5.3,/,/,/,/
COc1ccc(N2CCN(C(=O)COC(=O)CCOc3ccc(C)cc3)CC2)cc1,0.69,-1.1,-5,-15,i,2.3,2,-2,2.8,0.0
CN1CCc2nc(SCC(=O)Nc3ccc(OC(F)(F)F)cc3)c(C#N)c(-c3cccs3)c2C1,0.69,-0.5,-10,44,/,6.7,/,/,/,/
COc1cc(C(C[N+](=O)[O-])c2c(C)cc3ccccn23)ccc1O (centres undefined),0.68,0.4,14,25,i,-12,4,8,4.1,6.8
Cc1ccccc1OCC(O)Cn1c(NCc2ccccc2)nc2c1c(=O)[nH]c(=O)n2C (centres undefined),0.72,-0.3,-2,-1,/,2.7,/,/,/,/
COc1cc(/C=N/n2c(-c3ccccc3)n[nH]c2=S)ccc1O,/,0.3,4,-5,i,/,6,-6,0.7,-9.3
Cc1cc(C)c(C(=O)N2CCCC(Nc3ccc(C)c(C)c3)C2)o1 (centres undefined),0.69,-0.1,-3,24,i,1.4,-4,-5,0.1,7.0
COc1cc(C)cc(OC)c1OCC(=O)Nc1cc(C)on1,0.69,1.5,-2,/,i,3.7,3,-1,-0.8,-1.7
Cc1cnc(C(=O)Nc2ccc(F)cc2)cn1,0.67,-7.2,-2,-19,/,6.7,/,/,/,/
COC(=O)C(Cc1ccc(OC(=O)c2ccc(C)cc2)cc1)N1Cc2ccccc2C1=O (centres undefined),0.75,-2.4,0,-4,/,2.4,/,/,/,/
CCN1CCN(C(=S)Nc2cccc(C(F)(F)F)c2)CC1,0.67,0.4,-8,-9,i,2.1,-17,-11,-1.0,-28
CCOC(=O)c1nc(Nc2cc(C)cc(C)c2)c2ccccc2n1,0.66,1.0,26,56*,i,2.2,-8,-3,0.8,-2.6
COC(=O)NC(Nc1sc2c(c1C(N)=O)CCCC2)(C(=O)OC)C(F)(F)F (centres undefined),0.72,0.8,-6,-6,/,-1.8,/,/,/,/
CS(=O)(=O)N1CCN(CC(=O)NC2CCCC2)CC1,0.67,0.4,-3,0,i,0.3,7,10,1.0,-26
O=C(/C=C/c1ccc(Cl)c([N+](=O)[O-])c1)NCc1cccnc1,/,-0.6,23,16,/,/,3,3,6.6,/

# In another format: entries from further up.
smiles | E coli growth | A1 inh | Beta cell apopt | T cruzi inh | FGF22 binding | UCH37 inh | rRNA inh HTS | rRNA inh HTS OD600 | rRNA inh HTS RFP | MLL AF4-AF9 inh
COc1cc(C)cc(OC)c1OCC(=O)Nc1cc(C)on1 | 0.69 | 1.5 | -2 | / | i | 3.7 | 3 | -1 | -0.8 | -1.7
Cc1cnc(C(=O)Nc2ccc(F)cc2)cn1 | 0.67 | -7.2 | -2 | -19 | / | 6.7 | / | / | / | /
COC(=O)C(Cc1ccc(OC(=O)c2ccc(C)cc2)cc1)N1Cc2ccccc2C1=O (centres undefined) | 0.75 | -2.4 | 0 | -4 | / | 2.4 | / | / | / | /
CCN1CCN(C(=S)Nc2cccc(C(F)(F)F)c2)CC1 | 0.67 | 0.4 | -8 | -9 | i | 2.1 | -17 | -11 | -1.0 | -28
CCOC(=O)c1nc(Nc2cc(C)cc(C)c2)c2ccccc2n1 | 0.66 | 1.0 | 26 | 56* | i | 2.2 | -8 | -3 | 0.8 | -2.6
COC(=O)NC(Nc1sc2c(c1C(N)=O)CCCC2)(C(=O)OC)C(F)(F)F (centres undefined) | 0.72 | 0.8 | -6 | -6 | / | -1.8 | / | / | / | /

# (continued)
SMILES,E coli growth,A1 inh,Beta cell apopt,T cruzi inh,FGF22 binding,UCH37 inh,rRNA inh HTS,rRNA inh HTS OD600,rRNA inh HTS RFP,MLL AF4-AF9 inh
CCOc1ccc(C(C)(C)C)cc1S(=O)(=O)n1nc(C)cc1C,0.7,0.1,3,7,/,5.9,/,/,/,/
O=c1[nH]nc(N2CCOCC2)c(=O)[nH]1,0.7,-0.3,-4,-15,i,1.1,9,-1,1.1,2.1
COc1ccc(CN2CCn3ncc(C(=O)Nc4cccc(C)c4)c3C2=O)cc1,0.77,-0.8,5,13,/,0.7,/,/,/,/
COc1ccc(NS(=O)(=O)c2ccc(NC(=O)CCNS(=O)(=O)c3ccc(C)cc3)cc2)cc1,0.71,1.9,-4,-10,i,2.3,-9,-17,-2.3,-3.5
O=c1cc(CN2CCN(CCO)CC2)c2cc3c(cc2o1)CCC3,0.73,-0.5,-2,50,/,-2.3,/,/,/,/
CCOc1ccc(NS(=O)(=O)c2cc(C(=O)N3CCCC3)ccc2Cl)cc1,0.7,0.2,2,2,i,2.9,-4,-2,2.2,-23
COCCN(Cc1cn(C)nc1-c1ccc(Oc2ccccc2)cc1)C(C)C,0.71,0.5,/,1,i,4.7,-2,-7,-2.1,3.3
O=C(CC1CCS(=O)(=O)C1)NC1CCCCC1 (centres undefined),0.74,-0.2,-4,-3,/,1.6,/,/,/,/
Cc1cc2cc(CNC(=O)c3ccc4c(c3)OCO4)ccc2[nH]1,0.68,0.0,-1,5,i,0.5,6,1,3.2,2.1
COc1ccc(-n2ncc3c2CC(C)(C)CC3NC(=O)CCN2CCCC2=O)cc1 (centres undefined),0.7,0.1,-1,1,i,5.6,-2,1,-1.5,-1.4
O=C(COC(=O)c1ccccc1)NC1CCCC1,0.7,-0.5,-1,9,i,5.0,9,21,1.1,-3.9
Clc1ccc(OCCn2ccnc2)c(Cl)c1,0.65,-0.3,-5,2,/,1.1,/,/,/,/
O=C1CN(C(=O)c2ccccc2F)C(c2ccc(F)cc2)c2cc(Br)ccc2N1 (centres undefined),0.64,-2.6,-2,3,i,0.0,-10,-24,4.3,5.0
O=C(Cc1ccccc1Cl)Nc1cccnc1,0.65,0.1,-6,-23,i,4.0,0,4,-3.3,-0.4
CNc1snc(C)c1C(=O)OCC(=O)c1ccc(Cl)cc1,0.68,0.5,46,/,i,2.5,3,5,0.3,4.5
CCOC(=O)C(C)Sc1nnc(-c2ccccc2O)n1Cc1ccccc1 (centres undefined),0.71,-0.6,-3,9,/,0.3,/,/,/,/
O=c1c(C=NCc2ccccc2)c(NCc2ccccc2)nc2ccccn12,0.66,0.4,4,10,i,-5.9,-4,-5,2.8,3.4
CCc1c(C)c2cc(Cl)c(O)c(CN3CCCCC3)c2oc1=O,0.71,0.7,5,5,/,i,/,/,/,/
Cc1cccc(NS(=O)(=O)c2nnc(NC(=O)c3ccccc3F)s2)c1,0.71,-0.8,-4,-10,i,3.1,2,-33,-17,-5.0
CCc1noc(C)c1C(=O)NCCN1C(=O)S/C(=C\c2ccc(OC)cc2)C1=O,0.69,1.5,-2,7,i,7.5,-6,-2,-2.3,-0.8
O=C(CS(=O)(=O)c1ccccc1)c1ccc2c(c1)OCCO2,0.69,-0.4,-3,5,/,-2.4,/,/,/,1.0
CC1(OC(=O)C2CCCC2)C(=O)C=C2C=C(c3ccsc3)N(c3ccccc3)C=C2C1=O (centres undefined),0.73,1.2,-5,9,i,0.6,-14,-6,1.7,1.9
Cc1cc(NC(=O)CCC(=O)N(CC(=O)NCC2CCCO2)c2ccc(C(C)C)cc2)no1 (centres undefined),0.67,0.4,-1,-7,/,1.0,-2,5,-1.7,-0.6
Cc1noc(C)c1CSCC(=O)OCC(=O)Nc1sccc1C#N,0.7,1.3,-2,-9,/,1.4,/,/,/,/
Cc1nnc(CN(C)C(=O)c2cc(COc3ccc(F)cc3Cl)on2)o1,0.68,0.3,-4,-6,i,0.7,2,6,2.4,-0.4
Fc1ccc(C2NCCn3cccc32)cc1 (centres undefined),0.67,0.2,-1,2,/,0.7,/,/,/,/
CCN(Cc1ccc(OC)c(F)c1)C(=O)c1oc2ccccc2c1COC,0.63,0.8,/,12,i,-0.1,-2,11,-0.5,-4.8
CCOC(=O)c1nc(C(=O)NCc2ccc(C)cc2)nc2ccccc12,0.66,-0.5,9,/,i,0.6,-7,4,-0.8,0.8
O=C(CCNC(=O)c1ccc(Br)cc1)NCc1ccccc1F,0.58,-0.3,1,7,i,-0.7,3,6,-0.4,-1.8
COc1ccc(CCNC(=O)[C@H](CC(C)C)NC(=O)N2CCn3c2nc2ccccc23)cc1OC,0.68,-0.4,1,19,i,4.7,-1,-7,4.1,3.5
Cc1nc(C)c(-c2ccc(SCc3ccccc3F)nn2)s1,0.72,-0.3,-4,1,i,2.7,-8,-28,-5.3,0.7
O=C1c2cccnc2C(=O)N1c1cccc(-c2nc3ccccc3o2)c1,0.74,0.2,4,-9,/,/,/,/,/,/
O=c1cc(CN2CCCCC2)nc(C2CC2)[nH]1,0.66,0.3,4,11,i,4.6,7,3,0.6,-17
COCCOC(=O)c1c(C)oc2ccc(O)c(CN3CCC(C)CC3)c12,0.7,-0.5,1,4,/,1.7,6,3,-1.9,/
O=C(Cc1cccs1)Nc1ccccc1F,0.69,-0.7,0,-7,i,2.5,13,3,-1.5,0.6

# Screening data: PubChem BioAssay, several laboratories
